# UCH37 inh = human UCH37 deubiquitinating enzyme inhibition; purified proteasome/UCH37, Ub-AMC cleavage fluorescence; inhibition, % (concentration not given with the values); hit rate 0.33% among 330,000;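 active = mean of two replicates above 20%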;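 note: 0% = compound-free wells with enzyme and 100% = wells lacking proteasome; stock transfer was 100 nL into about 20 µL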
# Target sequence (Q9Y5K5 whole entry, looked up): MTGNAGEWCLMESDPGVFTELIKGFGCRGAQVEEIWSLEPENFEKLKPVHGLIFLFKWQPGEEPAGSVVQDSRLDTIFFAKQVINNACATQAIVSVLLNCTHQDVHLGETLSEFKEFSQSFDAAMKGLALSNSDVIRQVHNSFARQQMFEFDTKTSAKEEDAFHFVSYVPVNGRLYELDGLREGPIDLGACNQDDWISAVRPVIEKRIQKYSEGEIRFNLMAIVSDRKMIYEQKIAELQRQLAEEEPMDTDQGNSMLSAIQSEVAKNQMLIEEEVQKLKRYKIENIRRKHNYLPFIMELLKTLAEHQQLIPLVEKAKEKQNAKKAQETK
#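 Reagent: Ub-AMC substrate; assay system: Proteasome-associated human UCH37 deubiquitinase; controls: no-proteasome and no-compound wells; read-out: % inhibition of Ub-AMC cleavage fluorescence; timing: 30 min preincubation with enzyme, 25 min cleavage at room temperature; signal: AMC fluorescence from Ub-AMC cleavage, excitation 355 nm, emission 460 nm; buffer or medium: Tris-HCl pH 7.4 plus ovalbumin, ATP-MgCl2, DTT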
# Beta2AR agonist = agonists of human beta-2 adrenergic receptor inducing internalization | P07550 | Am2.2-beta2AR cells, FAP receptor internalization, flow cytometry; reference of the scale not given here | response, % (test concentration not listed) | hit rate 0.43% among 340,000;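 active = response above a set limit, near 3 SD of response in nonfluorescent compounds, cut at about 42% in these data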;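 note: stock transfer was 100 nL into about 11 µL; a reference agonist was the positive control; negative values mostly stem from fluorescent compounds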
# Target sequence (P07550 whole entry, looked up): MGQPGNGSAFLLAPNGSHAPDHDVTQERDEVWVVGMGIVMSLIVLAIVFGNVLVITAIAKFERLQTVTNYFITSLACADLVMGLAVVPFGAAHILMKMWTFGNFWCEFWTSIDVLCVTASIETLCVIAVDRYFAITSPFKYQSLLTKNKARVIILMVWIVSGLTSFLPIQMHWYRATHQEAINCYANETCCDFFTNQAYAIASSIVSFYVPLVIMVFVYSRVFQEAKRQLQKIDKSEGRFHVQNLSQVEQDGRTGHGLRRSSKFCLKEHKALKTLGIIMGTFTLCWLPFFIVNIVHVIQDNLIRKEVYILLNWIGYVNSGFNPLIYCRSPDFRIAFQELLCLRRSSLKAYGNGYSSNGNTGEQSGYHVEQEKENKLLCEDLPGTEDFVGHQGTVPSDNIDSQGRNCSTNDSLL
# The depositor's hits bear a star; i = inactive. Only part of the results is shown; rates above refer to the full screens.
UCH37 inh,Beta2AR agonist,compound
3.0,-4,Cc1ccc(C(=O)O)c(NC=O)c1OCc1ccccc1
3.6,-3,O=C(CNCc1ccc(Cl)cc1)Nc1cccc(C(=O)O)c1
5.3,0,Cc1c[n+]([O-])cc(C)c1[N+](=O)[O-]
3.9,-2,Cc1c(C(=O)O)sc(S(=O)(=O)N2CCN(C(=O)Cc3ccccc3)CC2)c1C(=O)O
-5.0,8,O=C(CCc1nc2ccccc2c(=O)[nH]1)NCCN1C(=O)S/C(=C\c2ccc(OC(F)F)cc2)C1=O
1.5,5,O=C(O)C(Cc1ccccc1N(CCO)CCO)N1C(=O)c2ccccc2C1=O (stereo not given)
-0.6,0,O=[N+]([O-])c1cccc(C=NN2CCCCCC2)c1
-192,17,Cn1cncc1C#Cc1c(-c2ccc(S(C)(=O)=O)cc2)sc2ccccc12
0.3,1,C[C@H](CO)N1C[C@H](C)[C@@H](CN(C)S(=O)(=O)c2cccs2)Oc2ccc(NC(=O)C3CC3)cc2C1=O
3.5,3,COc1cccc(CNC(=O)c2ccc(Cl)c(S(=O)(=O)N3CCOCC3)c2)c1
1.6,-3,COc1cc(OC)c2c(c1)OC(=O)CC2c1ccc(C)cc1 (stereo not given)
0.2,-7,Oc1c(CN2CCOCC2)cc(CN2CCOCC2)cc1CN1CCOCC1

# The closing 2 entries of the part before open the next one.
UCH37 inh,Beta2AR agonist,compound
1.6,-3,COc1cc(OC)c2c(c1)OC(=O)CC2c1ccc(C)cc1 (stereo not given)
0.2,-7,Oc1c(CN2CCOCC2)cc(CN2CCOCC2)cc1CN1CCOCC1
3.1,-3,Cc1ccc(-c2cccc(-c3cc(=O)oc4ccc(C(C)(C)C)cc34)c2)cc1
1.0,-5,CC(=O)Nc1ccc2c(c1)C(=Nc1ccccc1)c1ccccc1-2
5.4,0,CCN(C[C@H]1N[C@@](C)(C(=O)OC)[C@H]2C(=O)N(Cc3ccccc3)C(=O)[C@@H]12)S(=O)(=O)c1ccc(C)cc1
3.7,-4,C=CCN(C(=O)CSc1nc2[nH]ncc2c(=O)n1-c1ccccc1OC)c1ccccc1
-0.1,-3,O=C1C(=NO)CC(c2ccccc2)N1c1ccccc1 (stereo not given)
2.8,-5,Nc1nc(N)nc(-c2ccc([N+](=O)[O-])o2)n1
5.6,-4,O=Nc1c(O)[nH]c2ccc(Cl)c(Cl)c12
-0.3,9,CC(=O)c1cccc(NC(=O)C(C)OC(=O)c2ccc(-n3cnnn3)cc2)c1 (stereo not given)
4.9,-3,O=C(/C=C/c1cccc(C(F)(F)F)c1)NNC(=O)c1ccncc1
2.6,-1,CN(CC(=O)Nc1ccccc1Br)C(=O)CN1CCN(Cc2cccc(Cl)c2)CC1
3.0,-1,Cc1ccc(C(=O)N2[C@@H]3CN(C)C(=O)[C@@]2(C)[C@H]2C(=O)N(C)C(=O)[C@@H]32)cc1
0.4,2,Cc1ccc(CC(NC(=O)c2ccc(C)cc2)C(=O)O)cc1 (stereo not given)
3.2,2,COc1ccc(OC)c(C(=O)C(=O)c2cc(OC)ccc2OC)c1
0.7,56*,O=C1OC(c2ccccc2)(c2ccccc2)c2ccccc21
3.1,-1,COc1cc(CC2C(=O)OCC2C(=O)c2ccc3c(c2)OCO3)cc(OC)c1OC (stereo not given)
4.0,3,CCOc1ccccc1C=NNC(=O)C(=O)NN=Cc1ccccc1OCC
4.6,6,CCN(CC)C(CNC(=O)CSc1nnnn1-c1c(C)cccc1C)c1ccco1 (stereo not given)
5.9,5,O=C(O)C(CCc1ccccc1)(Cc1ccccc1)C(=O)O
1.8,-1,CN(C)c1nc2c(cnn2C)c(=O)[nH]1
5.5,-1,Cc1ccc(S(=O)(=O)N2CCCCC2)cc1NC(=O)CCCOc1ccccc1
2.1,7,CC1(C2CCC3C4CCC5CC6(CCC5(C)C4C(=O)CC32C)OCCO6)OCCO1 (stereo not given)
3.3,13,O=C1[C@H](Cc2ccccc2)NCC=CC[C@@H](c2ccc(Cl)cc2)N1Cc1ccc(Cl)cc1
1.7,3,CN(C(=O)c1cccc(NC(=O)Cc2ccc(NC(=O)C3CCN(C(=O)C4CC4)CC3)cc2)c1)C1CCCC1
-13,18,CN(C)CCCNC(=O)C[C@H]1C[C@H](C(=O)N2CCCCC2)[C@@]2(C)c3[nH]c4cc(-c5ccco5)ccc4c3CCN2C1=O

# Fetched one by one from above (3):
UCH37 inh,Beta2AR agonist,compound
3.2,2,COc1ccc(OC)c(C(=O)C(=O)c2cc(OC)ccc2OC)c1
-13,18,CN(C)CCCNC(=O)C[C@H]1C[C@H](C(=O)N2CCCCC2)[C@@]2(C)c3[nH]c4cc(-c5ccco5)ccc4c3CCN2C1=O
4.0,3,CCOc1ccccc1C=NNC(=O)C(=O)NN=Cc1ccccc1OCC

# Next section
UCH37 inh,Beta2AR agonist,compound
4.5,4,Cc1ccc(NC(=O)Cn2c(C)csc2=O)cc1
2.4,-8,CN(C)C(=O)CCc1ccc2c3c([nH]c2c1)[C@]1(C)[C@@H](C(=O)N2CCCCC2)C[C@H](CC(=O)NCC24CC5CC(CC(C5)C2)C4)C(=O)N1CC3
0.3,8,CCN(CC)S(=O)(=O)c1cc(NC(=O)CO/N=C(\N)c2ccccc2Cl)ccc1C
3.2,-6,O=C(COC(=O)c1nc(Cl)ccc1Cl)NCc1ccc(Cl)cc1Cl
0.5,-3,C=C(CCO)C1=CCN(S(=O)(=O)C(C)(C)C)[C@@H]1CCO
1.4,1,CC(C)N(C(=O)[C@H]1C[C@H](CC(=O)NC(C)(C)C)C(=O)N2CCc3c([nH]c4cc(CCC(=O)N(C)C)ccc34)[C@]12C)C(C)C
0.7,21,CC(O)C(NS(=O)(=O)c1ccc2ccccc2c1)C(=O)OCC(=O)Nc1ccccc1OC(F)F (stereo not given)
3.0,-3,CC(=O)N1CCN(C(C)=O)c2ccccc21
-2.1,6,O=C(O)c1ccc(NS(=O)(=O)Cc2ccc(Cl)c(Cl)c2)cc1
0.7,4,CC1CCCCC12NC(=O)N(CC(=O)NCCc1ccc(F)cc1)C2=O (stereo not given)
-0.5,-6,Cc1ccc(S(=O)(=O)NCCCNS(=O)(=O)c2ccccc2Br)cc1
-0.9,-4,CN(C(=O)c1cccc(NC(=O)Cc2ccc(NC(=O)C3CCN(C(=O)C4CC4)CC3)cc2)c1)C1CC1
4.2,-3,CN(C(=O)c1cccc(NC(=O)Cc2ccc(NC(=O)C3CCCN(S(=O)(=O)c4cccc([N+](=O)[O-])c4)C3)cc2)c1)C1CCCC1 (stereo not given)
0.1,-4,COc1ccc(-c2noc(CCC(=O)N3CCN(c4ccccc4)CC3)n2)cc1
1.5,6,Cc1ccc(S(=O)(=O)N(CC(=O)NCc2cccs2)c2ccccc2)cc1
-0.2,-1,O=C(O)CCCCCCCCCCC1CCC(O)C1O (stereo not given)
-0.2,-9,COc1ccc(OC)c(NC(=O)C2CC(=O)N(Cc3ccco3)C2)c1 (stereo not given)
0.8,-4,O=C1NC(=O)/C(=C\c2ccc(Cl)cc2Cl)N1
1.7,11,CCOC1=C(C#N)CC2(CC1)c1ccccc1-c1ccccc12
0.7,5,COc1ccc(-c2ccccc2[C@H]2[C@@H]3C=CC[C@@H](C)[C@@H]3C(=O)N2Cc2ccccc2)cc1
3.5,-10,O=C1CCC/C1=c1\s/c(=C/c2cccnc2)c(=O)n1-c1ccccc1
-2.7,14,O=[N+]([O-])c1ccc(NN=Cc2cccc(O)c2)nc1
5.2,11,Cc1ccc(COc2ccsc2C(=O)O)cc1
0.2,-3,CC(=O)N1CCN(C(=O)c2cc(S(=O)(=O)N(C)Cc3ccccc3)ccc2Cl)CC1
1.9,9,O=C(NCCCN1CCCCCC1)c1ccc(CS(=O)(=O)Cc2ccccc2F)o1
3.5,0,COC(=O)[C@]1(C)N[C@H](CN(C)S(=O)(=O)c2ccc(-c3ccccc3)cc2)[C@@H]2C(=O)N(Cc3ccccc3)C(=O)[C@@H]21
0.5,1,O=CN(Cc1nc2ccccc2[nH]1)c1ccc(C(=O)O)cc1
-63,-9,CCCCn1c2nc3ccccc3nc2c2c(=O)n(CC(C)C)cnc21
2.8,10,Cc1ccc(CN2CC(C(=O)Nc3ccc(C)c(S(=O)(=O)N4CCCCC4)c3)CC2=O)cc1 (stereo not given)
1.8,8,NC(=O)C1(Nc2ccc(Cl)cc2)CCCC1
2.8,5,CC(Oc1ccccc1F)C(=O)NNC(=O)c1ccc(-n2cncn2)c([N+](=O)[O-])c1 (stereo not given)
-0.6,-6,CCN(CC(=O)Nc1ccc(NC(C)=O)cc1)C(=O)c1cccc(N2C(=O)c3ccccc3C2=O)c1
0.5,-2,O=C(Cc1ccc([N+](=O)[O-])cc1)Oc1ccccc1
-0.2,21,O=C(Nc1ccc(Cl)c(S(=O)(=O)N2CCOCC2)c1)c1ccc(Cl)nc1
1.1,1,CC(C)CN1CC(COCc2ccccc2)Oc2ccccc2S1(=O)=O (stereo not given)
0.9,-5,Cc1nnc(SC(C)C(=O)NC2CCCCC2)s1 (stereo not given)
0.4,-2,Cc1cccc(OCc2nnc(SCC(=O)c3c(N)n(C4CC4)c(=O)[nH]c3=O)o2)c1
4.0,-8,C=CCN(c1ccccc1OC)S(=O)(=O)c1cccc(C(=O)NCc2cccs2)c1
1.5,-2,Cc1ccc(S(=O)(=O)N2CCOCC2)cc1NC(=O)Cn1c(=O)ccn(Cc2ccccc2)c1=O
2.3,6,O=C(COC(=O)c1ccc(F)cc1F)Nc1cccc(S(=O)(=O)N2CCOCC2)c1
27*,-6,O=C(O)c1cccc(-n2cccc2/C=C2/NC(=O)N(c3ccc(Cl)cc3)C2=O)c1
-0.4,23,COc1ccc(CNC(=O)C[C@H]2C[C@H](C(=O)N3CCOCC3)[C@@]3(CCC4CCCC4)c4[nH]c5ccc(Cl)cc5c4CCN3C2=O)cc1OC
-0.7,14,O=C1NC(=O)C(c2ccccc2)(C2CCCC2)N1 (stereo not given)
-0.4,-7,Cc1cccc(C(=O)NC2CC3CCC(C2)N3C)c1 (stereo not given)
3.5,5,OC(c1ccc2ccccc2n1)c1c(Cl)cccc1Cl (stereo not given)
3.6,-14,CC1CCCCC1NC(=O)CSc1ccsc1[N+](=O)[O-] (stereo not given)
2.1,-1,CN(C)S(=O)(=O)c1ccc(N2CCCC2)c(C(=O)N2CCN(S(=O)(=O)c3ccc(F)c(F)c3)CC2)c1
1.9,0,CN(CCc1ccccc1)C(=O)c1ccc(NC(=O)Cc2ccc(NC(=O)C3CCN(S(=O)(=O)c4cccc([N+](=O)[O-])c4)CC3)cc2)cc1
1.5,3,O=C(NC1CCCCCCC1)c1cccc(S(=O)(=O)N2CCOCC2)c1
0.6,-3,CN(CC(=O)Nc1ccccc1C(=O)NC1CC1)Cc1ccccc1F
-1.3,-6,CN(CC(=O)Nc1cccc(F)c1)C(=O)/C=C/c1ccc(S(=O)(=O)N2CCCCCC2)cc1
3.2,-2,CCOC(=O)N1CCN(c2c(N3CCN(c4cccc(C)c4C)CC3)c(=O)c2=O)CC1
2.3,10,CC1CCN(CC(=O)N(C)c2c(N)n(Cc3ccccc3)c(=O)[nH]c2=O)CC1
3.5,5,Cn1nc(C(=O)NCc2ccccc2CN2CCCC2)c2ccccc2c1=O
-20,-17,Cn1c(=O)c(-c2ccccc2)cc2ccccc21
0.6,5,CC1CCCN(CCC(=O)c2ccccc2)C1 (stereo not given)
4.6,1,Cc1ccc(NC(=O)CSCC(=O)N(C)CCOc2ccc(Cl)cc2)cc1
0.0,23,O=C(CN(c1ccc(Br)cc1)S(=O)(=O)c1ccc(Cl)c([N+](=O)[O-])c1)NCC1CCCO1 (stereo not given)
-1.7,-6,O=C(c1ccc(Cl)cc1)C1CCN(C(=O)c2ccccc2F)CC1
4.0,-2,O=C1CCCCC1(CCc1ccncc1)CCc1ccncc1

# In the list so far, 3 have bromine.
UCH37 inh,Beta2AR agonist,compound
2.6,-1,CN(CC(=O)Nc1ccccc1Br)C(=O)CN1CCN(Cc2cccc(Cl)c2)CC1
-0.5,-6,Cc1ccc(S(=O)(=O)NCCCNS(=O)(=O)c2ccccc2Br)cc1
0.0,23,O=C(CN(c1ccc(Br)cc1)S(=O)(=O)c1ccc(Cl)c([N+](=O)[O-])c1)NCC1CCCO1 (stereo not given)

# Next section:
UCH37 inh,Beta2AR agonist,compound
-0.4,3,CCOC1=CC(=O)OC(c2ccccc2)C1 (stereo not given)
-1.0,-3,Cc1cc(C)c(NC(=O)CSCc2c(C)noc2C)c(Cl)c1
1.2,-4,O=C1NC(=O)C2(CCCC2C(=O)O)N1 (stereo not given)
3.7,1,CCN(CC)CCNC(=O)C(Cl)=C1C(Cl)=C(Cl)C(Cl)=C1Cl
-328,-132,CC(=O)Nc1cc2c3c(cccc3c1)-c1ccccc1-2
-0.2,8,COc1ccc(CCNC(=O)c2ccc(S(=O)(=O)N3CCCCC3)cc2)cc1
-4.2,-1,NS(=O)(=O)c1ccc(CCNC(=O)/C=C/c2ccc(S(=O)(=O)N3CCOCC3)cc2)cc1
3.1,4,O=CNc1ccc2c(c1)Cc1cc([N+](=O)[O-])ccc1-2
2.5,-2,Cc1cccc(C(=O)NC(C(=O)Nc2ccc(S(=O)(=O)Nc3nccs3)cc2)C(C)C)c1 (stereo not given)
1.2,-2,CCCCN(C(=O)C1CCN(C(=O)c2ccccc2C)CC1)c1c(N)n(CCC)c(=O)[nH]c1=O
-16,i,Cn1c(=O)c(NC2CCCCC2)c2c3c(cccc31)C(=O)c1ccccc1-2

# Source: PubChem
